A647 autofl = A647 region autofluorescence; Compound fluorescence, A647 channel (570/671 nm), Tris buffer; max dye-equivalent concentration, M; 59,000 tested, under 10 active; active means above 1 µM dye equivalent; inconclusive means 0.1 to 1 µM; inactive means 0.1 µM or less;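 also: values scaled relative to a standard on each plate; highest value over a series up to 38 µM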
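Spectral profiling of library compounds in pH 8.0 Tris: 15 min room-temperature incubation, single ex/em pair (570/671 nm), response normalized to Alexa 647 equivalents.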
TSHR agonist = activates the human thyroid stimulating hormone receptor | 73,000 compounds, 0.48% hits | P16473 | Potency, µM (highest dose often 57.1 µM), inactives show top-dose activation, most hits filed as activators | HEK293-CNG-TSHR cells (CNG channel as cAMP sensor), membrane potential dye, cAMP; active = well fitted activation curve of enough size with the parental cells flat; inconclusive = any curve in the parental cells; inactive = parental cells flat and receptor cells flat or falling; also: potency is read from the fitted curve at half-maximal effect; % of control where 0% means no effect; weak receptor curves with flat parental cells got no call and are not listed
Target sequence (P16473 whole entry, looked up): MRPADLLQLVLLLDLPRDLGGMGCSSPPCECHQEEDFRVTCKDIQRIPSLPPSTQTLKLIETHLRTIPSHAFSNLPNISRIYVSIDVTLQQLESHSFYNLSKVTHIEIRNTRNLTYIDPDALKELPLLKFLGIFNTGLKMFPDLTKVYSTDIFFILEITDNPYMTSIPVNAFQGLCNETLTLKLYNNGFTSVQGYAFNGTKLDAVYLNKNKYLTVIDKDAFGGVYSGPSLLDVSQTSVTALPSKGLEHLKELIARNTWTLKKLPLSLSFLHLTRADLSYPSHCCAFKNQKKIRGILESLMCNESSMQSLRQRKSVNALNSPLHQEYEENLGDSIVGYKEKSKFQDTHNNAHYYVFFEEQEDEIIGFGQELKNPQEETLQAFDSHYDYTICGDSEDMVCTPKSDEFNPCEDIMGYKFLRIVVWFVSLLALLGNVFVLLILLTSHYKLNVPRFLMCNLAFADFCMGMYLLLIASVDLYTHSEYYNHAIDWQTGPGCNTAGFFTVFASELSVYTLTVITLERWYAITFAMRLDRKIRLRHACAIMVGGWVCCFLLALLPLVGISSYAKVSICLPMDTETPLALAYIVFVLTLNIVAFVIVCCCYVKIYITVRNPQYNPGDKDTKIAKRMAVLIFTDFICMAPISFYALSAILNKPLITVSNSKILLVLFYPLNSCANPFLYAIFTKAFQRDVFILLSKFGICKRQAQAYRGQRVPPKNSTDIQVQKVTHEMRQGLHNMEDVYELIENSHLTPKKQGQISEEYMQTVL
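cAMP rise detected as CNG-channel membrane depolarization by fluorescent dye (emission 590 nm), 30 min after compound, following 60 min dye loading containing 100 uM RO 20-1724 at room temperature. Cells: TSHR/CNG HEK 293, with parental CNG HEK 293 as control.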
Resorufin fluor = compounds fluorescent in resorufin spectral region; AID 588; max dye-equivalent concentration, M; Compound fluorescence, resorufin region 547/598 nm, buffer; active compounds read high; 59,000 compounds, 0.04% hits; active = above 10 nM dye equivalent; inconclusive = 1 to 10 nM; inactive = 1 nM or less; a few of its hits are not listed in these tables; also: highest value over a series up to 38 µM
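Read-out: intrinsic compound fluorescence at ex 547/em 598 nm after 15 min at RT in pH 8.0 Tris (100 mM). Values expressed as resorufin-equivalent concentration from per-plate standard series.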
AID923 = qHTS Assay for Allosteric/Competitive Inhibitors of Caspase-1: Spectroscopic Profiling in AFC Spectral Region | Potency, µM (titrated, usually from 57.5 µM), for inactives: at the highest dose fluorescence increase, most hits filed as activators | compound fluorescence, AFC spectral region (405/520 nm); almost no hit is shown here | 75,000 compounds, 1.1% hits; active = well fitted activation curve with a large enough effect; inconclusive = small, poorly fitted or top-dose-only effect;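 also: potency is read from the fitted curve at half-maximal effect; 0% is about no effect; scaled to a free AFC standard on each plate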
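Compound autofluorescence profiled at 405 nm ex/520 nm em during kinetic caspase 1 run (50 nM enzyme, 5 uM Ac-WEHD-AFC, HEPES pH 7.5, 10 mM DTT). Titration up to 57 uM; baseline from regression intercept, normalized to AFC standard curve.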
A488 fluor = A488 region autofluorescence. compound autofluorescence, A488 spectral region, dye equivalency; active compounds read high. 59,000 compounds, 0.1% hits. max dye equivalency, M. AID 591; active = above 10 nM dye equivalent; inconclusive = 1 to 10 nM; inactive = 1 nM or less; about half of its hits are not listed in these tables;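 also: highest value over a series up to 38 µM; compound alone in buffer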
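Autofluorescence read at ex 480/em 540 nm after 15 min RT in 100 mM Tris pH 8.0; compound signal normalized to A488 standard series on each plate, reported as dye-equivalent concentration at each test concentration.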
* hit, by the source's call; [ ] = another dose, or the depositor's remark.

Start of the data: the first seven compounds, to show the layout:
How did CC1=C(C)C(=O)N(c2ccccn2)C1=O do in these assays?
A647 autofl: 1e-09; TSHR agonist: 1%; Resorufin fluor: inactive; AID923: 0.9%; A488 fluor: inactive

How did COc1ccc(-n2c(=O)[nH]cc(C(=O)Nc3ccc4c(c3)OCCO4)c2=O)cc1 do in these assays?
A647 autofl: 1e-09; TSHR agonist: 1%; Resorufin fluor: inactive; AID923: 1.6%; A488 fluor: inactive

Results for O=C(Cn1c(=O)n2ncnc2c2c3c(sc21)CCCC3)c1ccccc1 ?
A647 autofl: 2.9e-08; TSHR agonist: inconclusive; Resorufin fluor: inactive; AID923: 0.0%; A488 fluor: inactive

What do the screens show for `COc1ccc(-c2cc(C(=O)O)c(C)o2)cc1OC`?
A647 autofl: 1e-09; TSHR agonist: -4%; Resorufin fluor: inactive; AID923: 1.9%; A488 fluor: inactive

What do the screens show for `CCN(CC(=O)Nc1c(C(=O)OC)[nH]c2ccccc12)c1ccc2c(c1)OCO2`?
A647 autofl: 1.9e-09; TSHR agonist: -5%; Resorufin fluor: inactive; AID923: -0.6%; A488 fluor: inactive

Results for Cc1cc2c(cc1C)NC(c1ccccn1)C1=C(CC(C)(C)CC1=O)N2 (configuration not stated) ?
A647 autofl: 4.5e-09; TSHR agonist: 12%; Resorufin fluor: inactive; AID923: 1.6%; A488 fluor: inactive

What do the screens show for `Cc1ccc(CCNC(=O)C2CCN(S(=O)(=O)c3ccc4c(c3)CCC(=O)N4)CC2)cc1`?
TSHR agonist: 0%; AID923: 1.8%

The listing (from the top)
How did CC1=C(C)C(=O)N(c2ccccn2)C1=O do in these assays?
A647 autofl: 1e-09; TSHR agonist: 1%; Resorufin fluor: inactive; AID923: 0.9%; A488 fluor: inactive

How did COc1ccc(-n2c(=O)[nH]cc(C(=O)Nc3ccc4c(c3)OCCO4)c2=O)cc1 do in these assays?
A647 autofl: 1e-09; TSHR agonist: 1%; Resorufin fluor: inactive; AID923: 1.6%; A488 fluor: inactive

Results for O=C(Cn1c(=O)n2ncnc2c2c3c(sc21)CCCC3)c1ccccc1 ?
A647 autofl: 2.9e-08; TSHR agonist: inconclusive; Resorufin fluor: inactive; AID923: 0.0%; A488 fluor: inactive

What do the screens show for `COc1ccc(-c2cc(C(=O)O)c(C)o2)cc1OC`?
A647 autofl: 1e-09; TSHR agonist: -4%; Resorufin fluor: inactive; AID923: 1.9%; A488 fluor: inactive

What do the screens show for `CCN(CC(=O)Nc1c(C(=O)OC)[nH]c2ccccc12)c1ccc2c(c1)OCO2`?
A647 autofl: 1.9e-09; TSHR agonist: -5%; Resorufin fluor: inactive; AID923: -0.6%; A488 fluor: inactive

Results for Cc1cc2c(cc1C)NC(c1ccccn1)C1=C(CC(C)(C)CC1=O)N2 (configuration not stated) ?
A647 autofl: 4.5e-09; TSHR agonist: 12%; Resorufin fluor: inactive; AID923: 1.6%; A488 fluor: inactive

What do the screens show for `Cc1ccc(CCNC(=O)C2CCN(S(=O)(=O)c3ccc4c(c3)CCC(=O)N4)CC2)cc1`?
TSHR agonist: 0%; AID923: 1.8%

How did N[C@@H](Cc1c[nH]c2ccc([N+](=O)[O-])cc12)C(=O)O do in these assays?
A647 autofl: 1e-09; TSHR agonist: 28%[11.4 µM]; Resorufin fluor: inactive; AID923: 0.9%[11.5 µM]; A488 fluor: inactive

How did CN1C(=O)c2ccccc2C(C(=O)NCC2CCCO2)C1c1c[nH]c2ccccc12 (configuration not stated) do in these assays?
A647 autofl: 2.2e-08; TSHR agonist: -3%; Resorufin fluor: inactive; AID923: -0.1%; A488 fluor: inactive

How did COc1cc(C(=O)OCc2cc3ccccc3[nH]c2=O)cc(OC)c1OC do in these assays?
A647 autofl: 2.2e-08; TSHR agonist: 12%; Resorufin fluor: inactive; AID923: -2.2%; A488 fluor: inactive

What do the screens show for `CCc1cccc(Nc2cc(C)nc3nc(C)nn23)c1`?
TSHR agonist: 23%; AID923: -3.7%

What do the screens show for `c1ccc(Cn2ncc3ccccc32)cc1`?
TSHR agonist: 12%; AID923: 4.6%

How did CN1C(=S)SC(/[N+]([O-])=C\c2ccco2)C1(C)C (configuration not stated) do in these assays?
A647 autofl: 2.2e-08; TSHR agonist: -9%; Resorufin fluor: inactive; AID923: 2.7%; A488 fluor: inactive

How did COc1ccccc1N1CCN(C(=O)c2c(-c3ccccc3Cl)noc2C)CC1 do in these assays?
A647 autofl: 2.4e-08; TSHR agonist: inconclusive; Resorufin fluor: inactive; AID923: 1.7%; A488 fluor: inactive

Results for CCOC(=O)c1cc(-c2nnc(-c3cc(OC)c(OC)c(OC)c3)o2)c(C)nc1C ?
A647 autofl: 1e-09; Resorufin fluor: inactive; AID923: -0.4%; A488 fluor: inactive

Results for CCOc1ccc2[nH]c(=O)c(CN(Cc3cccs3)C(CC)c3nnnn3C(C)(C)CC)cc2c1 (configuration not stated) ?
A647 autofl: 1e-09; TSHR agonist: inconclusive; Resorufin fluor: inactive; AID923: 15%; A488 fluor: inactive

What do the screens show for `Clc1ccccc1Nc1c2c(nc3ncnn13)CCC2`?
A647 autofl: 3.3e-08; TSHR agonist: 17%; Resorufin fluor: inactive; AID923: 0.7%; A488 fluor: inactive

What do the screens show for `O=C1CCN(C(=O)c2ccccc2)C2CCCCC12` (configuration not stated)?
TSHR agonist: 10%; AID923: -0.4%

How did CCOCCCNc1nc2ccccc2[nH]1 do in these assays?
A647 autofl: 3.8e-08; TSHR agonist: 11%; Resorufin fluor: inactive; AID923: -1.4%; A488 fluor: inactive

What do the screens show for `O=C(Nc1cc(=O)[nH]c2ncnn12)c1ccccc1Cl`?
A647 autofl: 4.1e-09; TSHR agonist: 4%; Resorufin fluor: inactive; AID923: 0.9%; A488 fluor: inactive

How did CCOc1cc(C2CC(=O)Nc3cc(C)c(C)cc32)ccc1O (configuration not stated) do in these assays?
A647 autofl: 1e-09; TSHR agonist: 3%; Resorufin fluor: inactive; AID923: -2.6%; A488 fluor: inactive

How did CCn1c(SC)nc2c(c1=O)SC(C)C2 (configuration not stated) do in these assays?
A647 autofl: 1.8e-08; TSHR agonist: -4%; Resorufin fluor: inactive; AID923: -0.5%; A488 fluor: inactive

Results for COc1cccc2cc(C(=O)N(C)C)c(=O)oc12 ?
A647 autofl: 2e-08; TSHR agonist: -6%; Resorufin fluor: inactive; AID923: -3.3%; A488 fluor: inactive

Results for Cc1cc2c(cc1C)NC(CC(=O)NCc1ccccc1)C(=O)N2 (configuration not stated) ?
TSHR agonist: -4%; AID923: 12%

What do the screens show for `COc1ccc2nc(NC(=O)Cc3ccc(OC)c(S(=O)(=O)N4CCOCC4)c3)sc2c1`?
A647 autofl: 4.7e-09; TSHR agonist: -5%[11.4 µM]; Resorufin fluor: inactive; AID923: -0.7%; A488 fluor: inactive

Results for O=c1c(-c2cc(F)cc(F)c2)nc2cncnc2n1Cc1ccccc1Cl ?
A647 autofl: 1e-09; TSHR agonist: -8%; Resorufin fluor: inactive; AID923: 7.5%; A488 fluor: inactive

Results for CCOC(=O)N1CCN(CC(O)COc2c(OC)cccc2OC)CC1 (configuration not stated) ?
A647 autofl: 2.2e-08; TSHR agonist: -1%[11.4 µM]; Resorufin fluor: inactive; AID923: 1.0%; A488 fluor: inactive

What do the screens show for `COc1ccc(C)cc1S(=O)(=O)NC1CCCCC1C` (configuration not stated)?
A647 autofl: 1e-09; TSHR agonist: 14%; Resorufin fluor: inactive; AID923: 1.4%; A488 fluor: inactive

How did CC(C)c1nnc(NC(=O)CN2C(=O)c3ccccc3C2=O)s1 do in these assays?
TSHR agonist: 11%; AID923: 1.4%

Results for CCN(Cc1ccccc1)C(c1cc2cc(C)cc(C)c2[nH]c1=O)c1nnnn1CCOC (configuration not stated) ?
A647 autofl: 3.3e-08; TSHR agonist: 5%; Resorufin fluor: inactive; AID923: -0.6%; A488 fluor: inactive

Results for CCN1C(=O)C(CC(=O)N2CCN(C(c3ccccc3)c3ccccc3)CC2)N(CC)C1=O (configuration not stated) ?
A647 autofl: 1e-09; TSHR agonist: -6%; Resorufin fluor: inactive; AID923: 0.4%; A488 fluor: inactive

Results for COc1cc(-c2nnc(COC(=O)C3c4ccccc4Oc4ccccc43)o2)cc(OC)c1OC ?
A647 autofl: 1e-09; TSHR agonist: 18%; Resorufin fluor: inactive; AID923: 1.3%; A488 fluor: inactive

Results for COCCn1c(=O)c(-c2ccc(F)cc2)nc2cncnc21 ?
A647 autofl: 2.6e-08; TSHR agonist: 6%; Resorufin fluor: inactive; AID923: 2.4%; A488 fluor: inactive

How did CCC(C)(C)NC(=O)C(OC(=O)c1ccco1)c1ccccc1OC (configuration not stated) do in these assays?
A647 autofl: 3.3e-08; TSHR agonist: inconclusive; Resorufin fluor: inactive; AID923: -2.5%; A488 fluor: inactive

Results for O=C(O)COc1cccc(NC(=O)c2ccccc2)c1 ?
TSHR agonist: 5%; AID923: 0.5%

How did O=C(Nn1cnnc1)c1csc2ccccc12 do in these assays?
A647 autofl: 4e-09; TSHR agonist: 1%; Resorufin fluor: inactive; AID923: -0.3%; A488 fluor: inactive

Results for O=C(c1cnccn1)N1CCC2(CC1)CN(c1ccncc1)C2 ?
A647 autofl: 2.5e-09; TSHR agonist: 0%; Resorufin fluor: inactive; AID923: 5.8%; A488 fluor: inactive

Results for CC(=O)OC(C(=O)NC1CCCCC1)c1ccccc1 (configuration not stated) ?
A647 autofl: 3e-08; TSHR agonist: inconclusive; Resorufin fluor: inactive; AID923: -0.8%; A488 fluor: inactive

What do the screens show for `CCOC(=O)C1CCN(Cc2ccc(F)cc2)CC1`?
A647 autofl: 3e-08; TSHR agonist: 5%; Resorufin fluor: inactive; AID923: 2.3%; A488 fluor: inactive

What do the screens show for `O=C1CCC(=O)N1CCC(c1ccc(F)cc1)c1ccco1` (configuration not stated)?
A647 autofl: 8e-08; TSHR agonist: 7%; Resorufin fluor: inactive; AID923: -1.4%; A488 fluor: inactive

How did Cc1onc(-c2c(F)cccc2Cl)c1C(=O)Nc1cccc(Cn2cccn2)c1 do in these assays?
A647 autofl: 1e-09; TSHR agonist: 0%; Resorufin fluor: inactive; AID923: 1.5%; A488 fluor: inactive

How did CCOc1ccccc1-c1nc2c([nH]1)c(=O)n(C)c(=O)n2C do in these assays?
A647 autofl: 4.7e-08; TSHR agonist: 4%; Resorufin fluor: inactive; AID923: -0.1%; A488 fluor: inactive

What do the screens show for `Cc1ccc(NC(=O)c2cc(N(C)C)ccc2[P+](=O)O)cc1`?
A647 autofl: 1.1e-08; TSHR agonist: 3%; Resorufin fluor: inactive; AID923: 0.8%; A488 fluor: inactive

Results for COc1cc(NC(=O)C2CC(c3cccc(OC)c3OC)=NO2)cc(OC)c1OC (configuration not stated) ?
A647 autofl: 1e-09; TSHR agonist: 15%; Resorufin fluor: inactive; AID923: 0.7%; A488 fluor: inactive

Results for CCCCN(CC)CCCNC(=O)c1cc2cc3ccc(OC)cc3nc2o1 ?
A647 autofl: 1.3e-09; TSHR agonist: inconclusive; Resorufin fluor: inactive; AID923: 6.3%; A488 fluor: inactive

Results for N#Cc1c(-c2ccccc2Cl)cc(C2CC2)nc1N ?
A647 autofl: 7.5e-08; Resorufin fluor: inactive; A488 fluor: inactive

Results for Cc1ccc(C(=O)C2=C(O)C(=O)N(CCCN3CCOCC3)C23C(=O)N(C)c2ccccc23)o1 (configuration not stated) ?
A647 autofl: 1.6e-09; TSHR agonist: -2%[11.4 µM]; Resorufin fluor: inactive; AID923: 4.0%; A488 fluor: inactive

What do the screens show for `COCc1cc(C)nc(Nc2ccc(C)c(C)c2)c1C#N`?
TSHR agonist: 14%; AID923: 14%

How did OB(O)O do in these assays?
TSHR agonist: inconclusive; AID923: -2.7%

Results for Cc1nn(-c2ccccc2)c2sc(C(=O)C(C#N)c3ccccn3)cc12 (configuration not stated) ?
A647 autofl: 1e-09; TSHR agonist: -1%; Resorufin fluor: inactive; AID923: 4.6%; A488 fluor: inactive

The list is partial, so the mix of outcomes need not match the whole.
